Source: PubChem BioAssay (several laboratories)
Beta apoptosis – blocks beta cell apoptosis; INS-1E cytokine-induced death, ATP luminescence, 48 h; percent of positive-control rescue, neutral wells zero; protection from apoptosis, % (concentration not given with the values); hit rate 0.8% among 300,000; AID 435005;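 active = all replicates at 75% or more, or half of them and the mean; inconclusive = half reach 75% but not the mean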;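 note: 0% = cytokine-treated negative control wells and 100% = positive control rescue; higher means more ATP so stronger rescue from cytokine killing; wells of about 40 µL received 100 nL stock; the first replicate is given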
rRNA inh HTS – inhibits bacterial ribosomal RNA function over humanized ribosomes | AID 720706 | GFP signal change (wild-type ribosome), % (no concentration beside the values) | E. coli WT GFP vs humanized-ribosome RFP mutants, fluorescence, 24 h; active compounds read low; DMSO median 0, no signal -100 | hit rate 1.6% among 350,000;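 active = significant combined selectivity score with lowered wild-type GFP, culture density cut under 30%, mutant RFP and density less affected; inactive = any of these conditions unmet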; note: one replicate is shown; some compounds called inactive have numbers as strong as hits
B2AR ag – agonists of human beta-2 adrenergic receptor inducing internalization; P07550; Am2.2-beta2AR cells, FAP receptor internalization, flow cytometry; reference of the scale not given here; response, % (no concentration beside the values); hit rate 0.43% among 340,000;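 active = response above a set limit, near 3 SD of response in nonfluorescent compounds, cut at about 42% in these data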;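 note: stock transfer was 100 nL into about 11 µL; a reference agonist was the positive control; negative values mostly stem from fluorescent compounds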
Target sequence (P07550 whole entry, looked up): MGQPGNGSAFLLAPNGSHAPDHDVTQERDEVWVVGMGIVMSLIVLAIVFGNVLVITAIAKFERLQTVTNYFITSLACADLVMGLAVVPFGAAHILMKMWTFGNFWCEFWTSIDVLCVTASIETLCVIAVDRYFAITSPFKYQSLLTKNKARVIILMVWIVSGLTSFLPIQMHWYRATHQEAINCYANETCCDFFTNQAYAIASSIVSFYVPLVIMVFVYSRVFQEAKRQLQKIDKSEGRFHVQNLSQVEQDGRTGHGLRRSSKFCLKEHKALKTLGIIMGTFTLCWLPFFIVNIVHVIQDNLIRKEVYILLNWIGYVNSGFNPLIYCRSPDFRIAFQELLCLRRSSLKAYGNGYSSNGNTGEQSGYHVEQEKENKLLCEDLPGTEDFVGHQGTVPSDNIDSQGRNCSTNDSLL
ALR inh – inhibitors of human sulfhydryl oxidase ALR. purified ALR, DTT oxidation, H2O2 HRP-luminol luminescence. inhibition, % (no concentration beside the values). P55789. hit rate 3.8% among 290,000;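 active = mean and each replicate at 75% or more; inconclusive = only one of the two met; inactive = neither met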;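 note: stock transfer was 7.5 nL into about 7.5 µL; 0% = neutral wells and 100% = wells with inactivated enzyme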
Target sequence (P55789 whole entry, looked up): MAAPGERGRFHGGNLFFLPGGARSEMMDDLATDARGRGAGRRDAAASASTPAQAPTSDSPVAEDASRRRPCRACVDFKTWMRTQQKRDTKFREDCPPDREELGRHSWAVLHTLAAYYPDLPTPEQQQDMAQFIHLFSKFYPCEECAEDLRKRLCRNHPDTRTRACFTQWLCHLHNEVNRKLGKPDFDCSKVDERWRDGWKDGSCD
LANA-H2A inh – blocks KSHV LANA binding to histone H2A/H2B. Q9QR71. cell-free LANA-H2A/H2B peptide, fluorescence polarization. AID 2629. hit rate 0.6% among 320,000. inhibition, % (concentration not given with the values); in the data active = inhibition mostly above about 10%, no sharp cut-off; inactive = mostly below about 6.7%;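 note: stock transfer was 7.5 nL into about 10 µL; 0% = median of vehicle wells and 100% = median of positive control wells; one replicate is shown; the record names a cut of 25% in any replicate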
T cruzi repl – T. cruzi replication inhibition; hit rate 1.4% among 300,000; T. cruzi beta-gal in NIH3T3, luminescence, 90 h; inhibition, % (test concentration not listed);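 active = mean inhibition across valid replicates above about 55%, limit read from the data; inconclusive = mean below that limit but half or more replicates reach it; inactive = mean below it, under half of replicates reach it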;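 note: signal also drops with host cell toxicity which is not excluded here; 0% = plate median of DMSO wells and 100% = zero luminescence signal; higher percent means less beta-gal luminescence so fewer parasites; stock transfer was 50 nL into about 50 µL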
A1 inh – inhibitors of the anti-apoptotic protein A1, read as caspase activation | MEF A1-2A-BIM cells, Caspase-Glo 3/7 luminescence, 3 h; percent of clofoctol response, vehicle zero | caspase activation, % (concentration not given with the values) | hit rate 0.066% among 330,000;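 active = over half of replicate activation scores above 10%, or exactly half above 10 with the replicate mean above 10; inconclusive = replicate mean below 10 yet half the replicates above 10; inactive = over half of replicates below 10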;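 note: wells of about 30 µL received 50 nL stock; many hits fall short of the cut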
Calb FLC – affects C. albicans growth with fluconazole; growth inhibition, % (concentration not given with the values); hit rate 0.57% among 300,000; AID 1979; C. albicans CaCi-2 (fluconazole-resistant clinical isolate) + fluconazole, Alamar Blue growth, 48 h;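 active = most replicates above 75%; inconclusive = exactly half above 75%; inactive = most below 75%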;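 note: all wells also contain fluconazole at 8 µg/ml as a sub-toxic cotreatment; 0% = median of DMSO wells and 100% = median of geldanamycin control wells; wells of about 8 µL received 7.5 nL stock; the first replicate is given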
rRNA inh HTS OD600 – further read-out of rRNA inh HTS, marked with its call; OD600 change, %; measured here: OD600 growth;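 optical density of the mix in the first replicate; 0 = DMSO median and -100 = no signal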
rRNA inh HTS RFP – recorded beside rRNA inh HTS, whose call it bears; RFP signal change, %; measured here: RFP humanized mutant strains;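 first replicate; 0 = DMSO median and -100 = no signal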
Starred values were filed as active, the others as inactive; ? = inconclusive; . = no result given. Only part of the results is shown (hit frequency here may not be typical).

1: Cc1cc(NC(=O)CSc2nnnn2-c2ccccc2C)no1
2: COc1ccc(-n2nc(C(=O)NCC(=O)NCc3ccccc3OC)c3ccccc3c2=O)c(OC)c1
3: Cc1nn(CCO)c(C)c1Oc1ccccc1O
4: CCOC(=O)c1[nH]c2ccccc2c1CCCN1C(=O)c2ccccc2C1=O
5: OC1(c2ccc(Cl)cc2)CN(c2ccccc2)C2=[N+]1CCS2 (stereo unspecified)
6: Brc1ccc(-c2noc(C3CCCCC3)n2)cc1
Screen / compound no.	1	2	3	4	5	6
Beta apoptosis	-1	1	2	-4	26	50
rRNA inh HTS	-12	11	.	.	8	-6
rRNA inh HTS OD600	-16	7	.	.	17	-5
rRNA inh HTS RFP	1.0	9.6	.	.	3.9	-1.9
B2AR ag	15	-1	12	.	-10	-4
ALR inh	-9	8	50	-14	.	2
LANA-H2A inh	2.5	-1.2	1.2	-1.8	2.4	-0.9
T cruzi repl	5	6	-1	17	-4	-16
A1 inh	0.7	0.1	-0.3	-0.6	0.3	-0.4
Calb FLC	2	8	10	3	-4	-1

7: Cc1ccc(-c2noc(C3CCCN(C(=O)c4ccccc4Br)C3)n2)cc1 (stereo unspecified)
8: CCN(CC)S(=O)(=O)c1ccc(C2CNC(=O)C2)cc1 (stereo unspecified)
9: Cc1ccc(N2C(=O)c3ccccc3C2=O)cc1C
10: O=C(NCC1COc2ccccc2O1)c1ccc(-n2cncn2)c([N+](=O)[O-])c1 (stereo unspecified)
11: Cc1ccc(C)n1-c1ccc(C(=O)Nc2ccccc2)cc1
12: Cc1c(C(=O)N2CCN(C3CCS(=O)(=O)C3)CC2)oc2c(F)cccc12 (stereo unspecified)
Screen / compound no.	7	8	9	10	11	12
Beta apoptosis	-3	-8	7	-1	?	3
rRNA inh HTS	-30	9	.	-5	-4	1
rRNA inh HTS OD600	-54	6	.	-10	5	-5
rRNA inh HTS RFP	-8.8	0.4	.	0.2	2.4	-0.1
B2AR ag	3	5	-2	13	4	2
ALR inh	-3	-12	-5	-25	.	-3
LANA-H2A inh	1.7	-0.9	-9.2	0.8	-0.6	0.0
T cruzi repl	15	0	-9	-2	-21	.
A1 inh	0.0	-0.2	0.2	0.0	-5.6	1.0
Calb FLC	8	0	-8	3	-10	.

13: O=C(COC(=O)c1ccc([N+](=O)[O-])s1)Nc1ncc(C(F)(F)F)cc1Cl
14: COc1ccc(CNC(=O)N[C@H](C(=O)O)C(C)C)cc1OC
15: Cc1cccn2c(=O)c3cc(C(=O)O)n(C)c3nc12
16: CCOc1ccc(NC(=S)NC(C)c2cccs2)cc1 (stereo unspecified)
17: CCOc1ccc(CCNC(=O)CN2C(=O)COc3ccc(S(=O)(=O)N4CCOCC4)cc32)cc1
18: C[C@H](NC(=O)c1ccc(Cl)cc1)C(=O)NCCc1ccc(S(N)(=O)=O)cc1
Screen / compound no.	13	14	15	16	17	18
Beta apoptosis	-3	-5	3	-14	1	.
rRNA inh HTS	.	3	.	.	0	5
rRNA inh HTS OD600	.	-6	.	.	0	6
rRNA inh HTS RFP	.	1.6	.	.	-1.0	-2.6
B2AR ag	6	-3	-4	-3	-1	4
ALR inh	-20	-14	-3	2	-1	-4
LANA-H2A inh	-2.2	-4.1	2.9	-9.8	-1.0	-3.7
T cruzi repl	-12	-8	-14	-3	-9	-6
A1 inh	-0.6	0.4	-0.3	0.3	1.3	-0.2
Calb FLC	3	3	25	-11	-12	2

19: CC1(C)Cc2c(cnn2-c2ccc(F)cc2)C(NC(=O)CN2CCCCC2=O)C1 (stereo unspecified)
20: CCn1c(SCC(=O)N2CCc3ccccc3C2)nc2c1c(=O)n(C)c(=O)n2C
21: Cc1cc(C)n(C(=O)c2c([N+](=O)[O-])cnn2C)n1
22: CN(c1ccccc1)S(=O)(=O)c1cccc(C(=O)OCC(=O)NCc2ccco2)c1
23: CCOC(=O)c1oc2ccc(CNCCO)c(Cl)c2c1C
24: Cn1nnc(NC(=O)c2cccc([N+](=O)[O-])c2)n1
Screen / compound no.	19	20	21	22	23	24
Beta apoptosis	-6	2	-1	-6	-1	5
rRNA inh HTS	0	.	.	-24*	.	4
rRNA inh HTS OD600	7	.	.	11*	.	-4
rRNA inh HTS RFP	2.8	.	.	1.6*	.	-2.2
B2AR ag	-7	-3	22	7	-12	4
ALR inh	-1	-14	-2	-8	-2	0
LANA-H2A inh	-1.6	-1.3	4.9	2.5	-3.9	-10
T cruzi repl	-1	6	-9	-34	10	-8
A1 inh	0.2	0.0	0.7	0.5	0.2	0.6
Calb FLC	-17	-5	-10	-3	-4	-7

25: Nc1ccc(C#Cc2c(-c3ccsc3)oc3ccc(N4CCOCC4)cc23)cc1
26: Cc1ccc(C2(C)NC(=O)N(CC(=O)NCc3ccccc3Cl)C2=O)cc1 (stereo unspecified)
27: COc1ccc(NC(=S)N2CCN(CCN=CC3=C(O)CC(c4ccccc4)CC3=O)CC2)cc1 (stereo unspecified)
28: Cc1ccc(N2C(=O)N3[C@H](c4cccc(C)c4)[C@@H]4C(=O)N(Cc5ccccc5)C(=O)[C@@H]4[C@]3(C)C2=O)cc1
Screen / compound no.	25	26	27	28
Beta apoptosis	.	6	-10	6
rRNA inh HTS	10	3	-18	2
rRNA inh HTS OD600	8	7	-17	4
rRNA inh HTS RFP	3.4	-7.6	2.8	-4.2
B2AR ag	20	-2	2	-1
ALR inh	-2	-7	-5	3
LANA-H2A inh	-0.7	-0.7	12	0.5
T cruzi repl	1	3	9	7
A1 inh	0.7	1.2	-0.2	1.0
Calb FLC	-1	4	-8	-7

Filtered by structure, the compounds so far containing a halogen
5: OC1(c2ccc(Cl)cc2)CN(c2ccccc2)C2=[N+]1CCS2 (stereo unspecified)
6: Brc1ccc(-c2noc(C3CCCCC3)n2)cc1
7: Cc1ccc(-c2noc(C3CCCN(C(=O)c4ccccc4Br)C3)n2)cc1 (stereo unspecified)
12: Cc1c(C(=O)N2CCN(C3CCS(=O)(=O)C3)CC2)oc2c(F)cccc12 (stereo unspecified)
13: O=C(COC(=O)c1ccc([N+](=O)[O-])s1)Nc1ncc(C(F)(F)F)cc1Cl
18: C[C@H](NC(=O)c1ccc(Cl)cc1)C(=O)NCCc1ccc(S(N)(=O)=O)cc1
19: CC1(C)Cc2c(cnn2-c2ccc(F)cc2)C(NC(=O)CN2CCCCC2=O)C1 (stereo unspecified)
23: CCOC(=O)c1oc2ccc(CNCCO)c(Cl)c2c1C
Screen / compound no.	5	6	7	12	13	18	19	23
Beta apoptosis	26	50	-3	3	-3	.	-6	-1
rRNA inh HTS	8	-6	-30	1	.	5	0	.
rRNA inh HTS OD600	17	-5	-54	-5	.	6	7	.
rRNA inh HTS RFP	3.9	-1.9	-8.8	-0.1	.	-2.6	2.8	.
B2AR ag	-10	-4	3	2	6	4	-7	-12
ALR inh	.	2	-3	-3	-20	-4	-1	-2
LANA-H2A inh	2.4	-0.9	1.7	0.0	-2.2	-3.7	-1.6	-3.9
T cruzi repl	-4	-16	15	.	-12	-6	-1	10
A1 inh	0.3	-0.4	0.0	1.0	-0.6	-0.2	0.2	0.2
Calb FLC	-4	-1	8	.	3	2	-17	-4

26: Cc1ccc(C2(C)NC(=O)N(CC(=O)NCc3ccccc3Cl)C2=O)cc1 (stereo unspecified)
Screen / compound no.	26
Beta apoptosis	6
rRNA inh HTS	3
rRNA inh HTS OD600	7
rRNA inh HTS RFP	-7.6
B2AR ag	-2
ALR inh	-7
LANA-H2A inh	-0.7
T cruzi repl	3
A1 inh	1.2
Calb FLC	4
